Bioassay records as filed in PubChem.
AF4-AF9 inh = inhibitors of AF4 peptide binding to AF9, primary screen, biochemical, AlphaScreen, biotin-AF4 peptide, FLAG-AF9, single point; Protein AF-9 (Homo sapiens), P42568; inhibition, % at 10 µM; 350,000 tested, 0.47% active;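 active = every replicate reaching a set inhibition limit, whatever the replicate mean, cut at about 25% in these data; inconclusive = mean inhibition reaches that limit but some replicates miss it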;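 note: 0% = plate neutral control median and 100% = total signal loss; the record names both 10 and 1 µM as test concentration; the first replicate is given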
Target sequence (P42568 whole entry, looked up): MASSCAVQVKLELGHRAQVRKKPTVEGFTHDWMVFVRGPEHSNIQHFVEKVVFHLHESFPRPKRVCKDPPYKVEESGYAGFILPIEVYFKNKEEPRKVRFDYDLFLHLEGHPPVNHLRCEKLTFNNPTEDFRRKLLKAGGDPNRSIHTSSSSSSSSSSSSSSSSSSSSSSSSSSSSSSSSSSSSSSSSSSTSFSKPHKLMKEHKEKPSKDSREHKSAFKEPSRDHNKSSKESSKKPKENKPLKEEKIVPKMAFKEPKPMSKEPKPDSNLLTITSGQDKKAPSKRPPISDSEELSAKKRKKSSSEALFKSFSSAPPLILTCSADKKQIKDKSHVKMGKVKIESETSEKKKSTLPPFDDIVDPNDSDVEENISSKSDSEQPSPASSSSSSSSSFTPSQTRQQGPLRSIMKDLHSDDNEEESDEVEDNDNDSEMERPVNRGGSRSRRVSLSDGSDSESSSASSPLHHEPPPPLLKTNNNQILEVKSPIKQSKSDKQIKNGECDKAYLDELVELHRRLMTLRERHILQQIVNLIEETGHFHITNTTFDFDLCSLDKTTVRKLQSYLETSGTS
Vif TR-FRET = inhibitors of Vif binding to APOBEC3G peptide, primary screen, biochemical, TR-FRET, GST-Vif 1-94, biotin-A3G peptide, dose response retest (AID 1117319); 260,000 tested, 0.57% active; inhibition, %; hits with a dose series show IC50 in µM; TR-FRET GST-Vif / biotin-A3G peptide binding; higher % means a stronger effect; test concentration not given here; strong numbers were not always called active;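 active = above the screen mean plus three standard deviations and confirmed in dose response; inconclusive = results disagree or hit not tested in dose response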;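 note: Vif residues 1-94 fused to GST binding biotinylated APOBEC3G peptide 110-148; 0% = full assay without inhibitor and 100% = GST in place of GST-Vif; retest series ran down from 100 µM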
T cruzi repl = inhibitors of intracellular T. cruzi growth, primary screen, luminescence, NIH3T3 host cells. T. cruzi beta-gal in NIH3T3, 90 h. inhibition, % (test concentration not listed). 300,000 tested, 1.4% active. AID 1885, 2009;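 active = mean inhibition across valid replicates above about 55%, limit read from the data; inconclusive = mean below that limit but half or more replicates reach it; inactive = mean below it, under half of replicates reach it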;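 note: signal also drops with host cell toxicity which is not excluded here; 0% = plate median of DMSO wells and 100% = zero luminescence signal; higher percent means less beta-gal luminescence so fewer parasites; stock transfer was 50 nL into about 50 µL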
rRNA inh HTS = reduced GFP signal of wild-type E. coli, primary screen, bacterial rRNA inhibitor project, GFP/RFP fluorescence, OD600, single point | E. coli WT GFP vs humanized-ribosome RFP mutants, 24 h; active compounds read low; DMSO median 0, no signal -100 | GFP signal change (wild-type ribosome), % (concentration not given with the values) | 350,000 tested, 1.6% active | AID 720706, 2013;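 active = significant combined selectivity score with lowered wild-type GFP, culture density cut under 30%, mutant RFP and density less affected; inactive = any of these conditions unmet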; note: one replicate is shown; some compounds called inactive have numbers as strong as hits
RanGTP-Impb inh = inhibitors of RanGTP-importin-beta interaction, primary screen, biochemical, FRET, CFP-Ran, YFP-importin-beta, homogeneous; Ran GTPase (GTP-bound) - importin-beta complex; cell-free CFP-Ran/YFP-importin-beta FRET ratio; inhibition, % (no concentration beside the values); 300,000 tested, 1.1% active; AID 2216, 2009;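 active = most replicates above 15%; inconclusive = exactly half above 15%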;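 note: 0% = DMSO wells and 100% = Ran loaded with GDP instead of GTP; wells of about 40 µL received 100 nL stock; the first replicate is given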
Bfl-1 A1 inh = caspase 3/7 activation in MEF A1-2A-BIM cells, primary screen, A1 inhibitor project, cell-based, luminescence, HTS. Caspase-Glo 3/7 luminescence, 3 h; percent of clofoctol response, vehicle zero. caspase activation, % (test concentration not listed). AID 2462, 2010. 330,000 tested, 0.066% active;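 active = over half of replicate activation scores above 10%, or exactly half above 10 with the replicate mean above 10; inconclusive = replicate mean below 10 yet half the replicates above 10; inactive = over half of replicates below 10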;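 note: wells of about 30 µL received 50 nL stock; many hits fall short of the cut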
Calb FLC = C. albicans growth inhibition with fluconazole, primary screen, CaCi-2 strain, Alamar Blue fluorescence; 300,000 tested, 0.57% active; C. albicans CaCi-2 (fluconazole-resistant clinical isolate) + fluconazole, 48 h; growth inhibition, % (concentration not given with the values); AID 1979, 2009;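 active = most replicates above 75%; inconclusive = exactly half above 75%; inactive = most below 75%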;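 note: all wells also contain fluconazole at 8 µg/ml as a sub-toxic cotreatment; 0% = median of DMSO wells and 100% = median of geldanamycin control wells; wells of about 8 µL received 7.5 nL stock; the first replicate is given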
Beta apoptosis = inhibitors of cytokine-induced beta cell apoptosis, primary screen, luminescence. INS-1E cytokine-induced death, ATP luminescence, 48 h; percent of positive-control rescue, neutral wells zero. protection from apoptosis, % (no concentration beside the values). 300,000 tested, 0.8% active. AID 435005, 2010;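 active = all replicates at 75% or more, or half of them and the mean; inconclusive = half reach 75% but not the mean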;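 note: 0% = cytokine-treated negative control wells and 100% = positive control rescue; higher means more ATP so stronger rescue from cytokine killing; wells of about 40 µL received 100 nL stock; the first replicate is given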
rRNA inh HTS OD600 = further read-out of rRNA inh HTS, marked with its call; OD600 change, %; measured here: OD600 growth;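 optical density of the mix in the first replicate; 0 = DMSO median and -100 = no signal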
rRNA inh HTS RFP = also measured in rRNA inh HTS; calls as there; RFP signal change, %; measured here: RFP humanized mutant strains;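 first replicate; 0 = DMSO median and -100 = no signal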
The depositor's hits bear a star; ? = inconclusive; . = no result given; & = joins results of further samples.

SMILES	AF4-AF9 inh	Vif TR-FRET	T cruzi repl	rRNA inh HTS	rRNA inh HTS OD600	rRNA inh HTS RFP	RanGTP-Impb inh	Bfl-1 A1 inh	Calb FLC	Beta apoptosis
Cc1cc(S(=O)(=O)NCCc2ccccc2)ccc1-n1cnnn1	-2.9	.	-10	-2	0	1.0	2.2	0.6	0	0
Cc1cc(C(=O)NN=Cc2ccc(-c3ccc(F)cc3)o2)c(C)o1	0.8	.	.	7	1	1.9	.	0.0	.	-4
CNC(=S)N/N=C/c1ccco1	-3.9	10%	-9	10	6	1.4	-1.5	-0.2	3	-6
CC(C)n1c(SC2CCOC2=O)nc2ccccc21 (stereo unspecified)	.	-7%	-3	.	.	.	0.6	0.4	2	-13
CCc1nc(OCc2ccco2)c2sc3nc4c(cc3c2n1)COC(C)(C)C4	.	>100µM*	.	.	.	.	-0.6	0.4	-1	6
O=C(Nc1ccccc1N1CCCCC1)C1CCN(C(=O)c2ccc(Cl)cc2)CC1	-12	-10%	16	-3	-48	18	1.4	0.0	6	2
Cc1ccc(C)c(/C=N/Nc2ccccn2)c1	2.4	2%	1	28	15	2.8	1.6	-0.5	13	-7
O=C(NC1CCCCCCC1)C1CCN(c2nc3ccccc3o2)CC1	.	4%	13	.	.	.	-1.9	0.0	-43	10
Cc1cc(C)n(C(=O)c2ccc(C)c(F)c2F)n1	.	.	-11	.	.	.	-0.8	-0.6	13	0
CCOC(=O)c1c(C2CCN(C(=O)OCC)CC2)nc2ccccn12	-6.2	13%	-12	-10	-19	-1.3	-3.3	0.7	3	-2
CN(/N=C/c1cc([N+](=O)[O-])ccc1O)c1ccccc1	-3.2	6%	7	22	3	-2.2	-4.4	-4.3	-6	9
Cc1ccc(CNCc2ccco2)cc1	2.1	-10%	3	18	15	3.1	-1.8	-0.6	-2	-3
COc1cccc2sc(NNC(=O)COc3ccccc3)nc12	0.4	.	-11	12	14	0.0	1.1	-2.3	1	2
CCOC(=O)C1=C(COC(=O)/C=C/c2cccc(Cl)c2)NC(=O)NC1C (stereo unspecified)	-1.9	4%	3	7	7	-1.0	-2.0	-0.2	-1	.
Cn1cc(C(=O)N2CCN(C(=O)c3ccco3)CC2)c2c3ccccc3n(C)c2c1=O	.	-3%	-5	.	.	.	?	0.2	6	-3
COc1ccc(NC(=O)NCCCN2CCCC2=O)cc1	-2.3	3%	-3	12	11	-2.3	2.7	1.0	1	0
CCOC(=O)c1sc(SC)c2c1CCCC2=O	-2.3	-28%	-4	-18	-16	-9.4	-0.6	0.0	14	-4
CCOC(=O)C1CCN(C(=O)c2ccc(N3CCCC3=O)cc2)CC1	2.4	7%	.	-2	6	-1.9	.	0.7	.	-10
Cc1cccc(NC(=O)c2ccc(S(=O)(=O)N(C)c3ccccc3)cc2)n1	-1.5	-4%	.	-17*	-25*	1.2*	.	-0.5	.	-7
CC12CCC(C(=O)N3CCC(Cc4ccccc4)CC3)(C(=O)C1=O)C2(C)C (stereo unspecified)	14	.	10	-23*	-13*	2.8*	3.4	-0.1	25	5
COc1cccc(NC(=O)C2CCN(S(=O)(=O)c3ccccc3)CC2)c1	-3.0	.	6	-3	-2	1.4	3.8	-1.8	-3	.
CCN(CC)S(=O)(=O)c1cccc(NC(=O)c2cncc(Br)c2)c1	0.8	.	13	.	.	.	-1.5	0.5	-9	-1
CCOc1ccc(NC2=CC(=O)CCC2)cc1	5.9	9%	42	11	4	5.5	-0.7	-0.2	27	.
CC(C)[C@H](NC(=O)c1ccccc1)C(=O)OCC(=O)N1CCN(C(=O)c2ccco2)CC1	-1.8	20%	6	16	8	-3.7	-0.1	0.4	59	-12
N/C(=N\OC(=O)c1cccc(Cn2cc(C(F)(F)F)ccc2=O)c1)c1ccc(Cl)cc1	1.5	.	3	.	.	.	-0.7	1.0	-3	113*
CN(C)CCCn1c2c(c(SCC(=O)Nc3nccs3)nc1=O)CCC2	5.9	8%	10	1	4	-0.5	7.1	0.1	-1	.
COc1ccc(C2CC(c3ccc4ccccc4c3)=NN2C(=O)CN2CCC(C(N)=O)CC2)cc1 (stereo unspecified)	12	-19%	9	-48*	-32*	-10*	4.0	0.8	1	5
CC(C)(C)c1ccc(C(=O)Nn2c(CCC(=O)O)ccc2-c2cccs2)cc1	8.0	26%	-10	-6	-3	-3.1	0.0	-1.7	-16	-2
COc1ccc(C)cc1NC(=O)C1CCCCC1C(=O)O (stereo unspecified)	.	12%	-2	.	.	.	-3.2	0.3	19	-7
COC(=O)c1ccc(N2C(=O)C3CC(C)=C(C)CC3C2=O)cc1 (stereo unspecified)	-2.0	.	-4	3	5	-0.6	-3.4	-0.3	-1	-5
O=C(CN(C(=O)CCC(=O)Nc1ccccn1)c1ccc2c(c1)OCO2)NCc1ccco1	.	-2%&-9%	5	.	.	.	1.5	0.2	27	0
CCn1c(SCC(=O)Nc2cc(C)on2)nnc1-c1ccncc1	.	1%	-7	.	.	.	-0.6	-0.3	-11	5
O=C1c2cccc3cccc(c23)C(=O)N1CCCc1n[nH]c(=S)n1-c1ccccc1	-4.3	23%	15	-14	-15	-2.1	1.6	-1.0	16	-5
O=C(CN1C(=O)NC2(CCCC2)C1=O)NCCc1ccc(F)cc1	4.2	-6%	.	7	8	5.4	.	1.1	.	-4
Cn1c(N)c(C(=O)CSc2nnc(C3CC3)n2N)c(=O)n(C)c1=O	0.7	-2%	.	7	8	0.1	.	0.2	.	0
Cn1c(=O)c2cc(S(=O)(=O)NCCC(=O)Nc3ccc(Cl)cc3)ccc2n(C)c1=O	.	?	-80	.	.	.	-3.4	0.4	-5	7
Nc1ccc(C(=O)Nc2ccc3nc(-c4cccnc4)[nH]c3c2)cc1	.	1%	-2	.	.	.	2.4	-0.8	-5	2
CCOC(=O)C1=C(c2ccccc2)NC(SCC(N)=O)=C(C#N)C1c1cccnc1 (stereo unspecified)	.	-8%	-24	.	.	.	0.4	0.2	32	-8
CC(OCC(O)CN(C)Cc1nc2ccccc2c(=O)[nH]1)c1ccc(Cl)cc1 (stereo unspecified)	2.5	8%	-20	-13	-15	1.5	-1.9	0.2	-13	1
Cc1ccc(S(=O)(=O)N2CCCSCC2)cc1	.	2%	-7	.	.	.	5.0	0.3	-1	0
Cc1ccc(Cn2c(-c3nonc3N)nc3ccccc32)cc1	.	2%	15	.	.	.	-2.7	0.4	-1	10
CCSC1=NCCN1S(=O)(=O)c1ccc(NC(C)=O)cc1	1.2	8%	-15	11	14	6.2	6.1	-0.1	-7	-4
COC(=O)CSc1nnc(-c2ccc(S(=O)(=O)NCc3cccs3)cc2)o1	.	-6%	0	.	.	.	.	0.3	2	2
Cc1cccn2c(=O)c(/C=C(\C#N)S(=O)(=O)c3ccccc3)c(N3CCN(C)CC3)nc12	.	5%&3%	15	.	.	.	-60	0.5	-4	-1
O=C1c2cccc3cccc(c23)C(=O)N1Cc1ccccc1	-0.7	.	10	-47	-41	0.0	4.3	0.4	-6	1
C=CCc1cccc(CNc2nc3ccccc3n2C)c1O	2.0	.	-8	-56	-79	-16	-1.8	1.5	49	-9
Cc1cccc(NC(=O)C(c2ccccc2Cl)N2CCOCC2)c1 (stereo unspecified)	-2.2	.	5	-3	-26	-6.7	-4.1	-0.7	-7	0
O=C1NC(=O)/C(=C\c2ccc(Cl)nc2)S1	-2.1	-8%	4	-8	-14	-0.9	2.5	-0.5	-6	3
Cc1ccc(NC(=O)COC(=O)CCn2c(C)csc2=O)c([N+](=O)[O-])c1	1.3	-8%	-9	3	3	1.7	-2.3	-0.4	-3	1
COc1cccc2sc3ccc(C#CC4(N)CCCCC4)cc3c(=O)c12	11	.	23	-38	-61	0.2	55*	-2.6	-12	10
N#Cc1c(-c2ccccc2)cc(-c2ccc(O)cc2)nc1N	-2.8	.	-8	-9	1	-1.8	1.4	-0.6	33	.
COc1ccc(OCC(=O)Nc2ccccc2C(=O)NC(C)C)cc1	0.1	1%	6	-2	0	-2.0	5.4	0.9	-3	-16
NC(=O)CN1CCN(S(=O)(=O)c2ccc(Br)cc2)CC1	-3.2	0%	2	5	1	0.8	-3.8	-1.1	3	-2
Cc1cc(Nc2ccc(Br)cc2)nc2ccccc12	.	.	33	-51*	-41*	-14*	2.4	0.9	-24	13
Cc1nc(C/C(=N\N)c2ccc(O)cc2O)cs1	-0.6	16%	1	-16	-6	-2.3	9.1	-0.1	3	-1
Cc1nc2ccccc2nc(=O)c1NNc1ccc([N+](=O)[O-])cc1	-1.9	?	-16	-7	5	-2.1	2.2	-0.6	7	3
CC(C)Oc1ccc(C2CC(=O)N(c3ccc(C(=O)O)cc3)C2=O)cc1 (stereo unspecified)	-0.1	-7%	-23	2	2	-1.5	-2.0	0.0	3	1
COc1cc(/C=C(/C#N)C(=O)Nc2ccccc2)c(Br)cc1OCc1ccc(C(=O)O)cc1	.	.	-8	7	-11	3.3	3.7	0.3	2	-2
CC1(c2ccc(OCC(N)=O)cc2)NC(=O)NC1=O (stereo unspecified)	0.7	.	-6	5	12	-0.8	5.8	-0.4	1	-2
O=C(NCc1ccccc1)C1(c2ccccc2)CCN(S(=O)(=O)c2ccccc2)CC1	-4.0	2%	11	-10	-6	-0.7	0.5	-0.4	12	5

Next section:
SMILES	AF4-AF9 inh	Vif TR-FRET	T cruzi repl	rRNA inh HTS	rRNA inh HTS OD600	rRNA inh HTS RFP	RanGTP-Impb inh	Bfl-1 A1 inh	Calb FLC	Beta apoptosis
CCOc1ccc(NC(=O)C2CCCN2C(=O)Oc2ccccc2)cc1 (stereo unspecified)	2.3	.	-15	3	4	-1.5	1.7	0.6	-1	-3
CN(CCO)c1cc(N2CCC3(CC2)OCCO3)c2nonc2c1[N+](=O)[O-]	2.4	.	1	16	8	34	0.7	0.7	-3	-3
CCC(Sc1nc(N)c(NC(=O)c2ccc(Br)o2)c(=O)[nH]1)C(=O)O (stereo unspecified)	-1.4	-6%	-4	1	5	-3.5	7.9	0.1	-5	-5
O=C(NCCN1CCOCC1)/C(=C/c1ccc(Cl)cc1)NC(=O)c1ccccc1	1.7	0%	-9	2	6	0.0	1.3	-7.4	-5	-1

This is a subset, so the mix of outcomes need not match the whole.
